# TRPML1 agonist – human mucolipin-1 channel agonism. Q9GZU1. TRPML1-expressing cells, Ca2+ dye fluorescence, FDSS; host cell line not named in the record; reference of the full effect not given here. activation, % (test concentration not listed). 410,000 compounds, 0.12% hits; in the data active = activation above about 50%; inconclusive = about 30% to 50%; inactive = below about 30%; further: 0% is about no effect; the text of the record puts the active cut at 80%
#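 Kinetic FDSS Ca2+ read in Tet-induced TRPML1-DL cells (ABD Ca8 dye plus quencher, 45-90 min RT loading): baseline, then compound, then 110 s agonist window; EC80 agonist 54-4 at 4uM final added afterwards for a 110 s antagonist window.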
# CtBP-E1A inh – blocks the CtBP interaction with E1A. activity change, % (concentration not given with the values). AlphaScreen GST-E1A/His-CtBP binding, 1536-well; stronger effect = lower value; control for the full effect not named in the record. 340,000 compounds, 0.49% hits; in the data active means activity change below about -65%; inconclusive means about -30% to -65%; inactive means above about -30%; further: on the % scale 0 is the no-effect control and ±100 the full control effect
#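 GST-E1A and His-tagged CtBP (125 nM each as 5X stock) were preincubated with pin-transferred compound for 2 h at 37 °C in the dark, then glutathione donor and nickel acceptor beads were added for 1 h before AlphaScreen reading.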
# Six1-Eya2 inh – inhibitors of human Six1/Eya2 interaction; Q15475+O00167; AlphaScreen GST-Six1/His-Eya2 binding, biochemical; stronger effect = lower value; control for the full effect not named in the record; activity change, % (test concentration not listed); 360,000 compounds, 0.56% hits; AID 651725; in the data active = activity change below about -65%; inconclusive = about -30% to -65%; inactive = above about -30%; further: on the % scale 0 is the no-effect control and ±100 the full control effect
#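 Six1/Eya2 binding was read as AlphaScreen signal after compounds were pinned into GST-Six1 plus His-tagged Eya2 (5X stock 250/500 nM) in pH 8.0 Tris/NaCl/TCEP buffer, beads added, then incubated 1 h, 37 C, dark.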
# D2 potentiator – positive allosteric modulators of human D2 dopamine receptor; P14416; DiscoveRx D2 beta-arrestin cells, luminescence, 90 min; 100% = 57 uM dopamine signal; potentiation, % (test concentration not listed); 360,000 compounds, 0.23% hits; AID 624464; active = potentiation of 50% or more; inconclusive = 30% to 50%; inactive = 30% or less;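 further: compound concentration not given in the record; tested on top of an EC20 dose of dopamine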
#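 PathHunter beta-arrestin assay in DiscoveRx D2 cells. Compounds were added with an EC20 of dopamine (50 nM final) for 90 min at 37 deg C. Luminescence was read 1 h after detection reagent, with 57 uM dopamine as the EC100 control.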
# TRPV1 PAM – potentiators of human vanilloid receptor 1 (TRPV1); Q8NER1; TRPV1-expressing cells, Fluo-8 calcium influx, capsaicin EC20 potentiation; host cell line not named in the record; control for the full effect not named in the record; potentiation, % at 8.33 µM; 320,000 compounds, 0.02% hits; AID 540277; active means potentiation above 80%; inconclusive means 30% to 80%; inactive means below 30%; further: 0% is about no effect
# Target sequence (Q8NER1 whole entry, looked up): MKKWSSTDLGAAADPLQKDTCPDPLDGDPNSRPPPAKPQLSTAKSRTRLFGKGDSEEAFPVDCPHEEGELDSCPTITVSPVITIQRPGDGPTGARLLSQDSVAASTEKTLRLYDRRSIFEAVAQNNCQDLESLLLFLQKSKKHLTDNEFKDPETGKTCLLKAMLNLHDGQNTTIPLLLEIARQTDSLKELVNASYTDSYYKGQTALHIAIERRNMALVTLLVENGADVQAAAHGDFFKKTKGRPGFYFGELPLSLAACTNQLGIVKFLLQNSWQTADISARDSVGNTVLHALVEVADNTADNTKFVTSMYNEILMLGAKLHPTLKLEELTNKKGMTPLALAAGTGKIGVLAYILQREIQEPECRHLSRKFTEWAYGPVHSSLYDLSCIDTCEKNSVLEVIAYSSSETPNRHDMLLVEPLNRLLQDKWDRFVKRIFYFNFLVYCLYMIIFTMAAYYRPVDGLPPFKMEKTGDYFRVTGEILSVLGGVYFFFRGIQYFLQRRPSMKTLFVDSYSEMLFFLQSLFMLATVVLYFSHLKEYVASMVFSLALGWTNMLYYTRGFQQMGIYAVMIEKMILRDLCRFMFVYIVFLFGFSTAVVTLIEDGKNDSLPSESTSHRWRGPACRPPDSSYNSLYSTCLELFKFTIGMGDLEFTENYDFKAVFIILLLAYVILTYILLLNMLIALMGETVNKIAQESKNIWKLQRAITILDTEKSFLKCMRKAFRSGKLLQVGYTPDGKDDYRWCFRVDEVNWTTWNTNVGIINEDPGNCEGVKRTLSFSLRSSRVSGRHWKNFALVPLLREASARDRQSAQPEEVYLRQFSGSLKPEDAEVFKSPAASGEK
#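 TRPV1-expressing cells were cultured overnight at 35.5C and loaded with Fluo-8 calcium dye for 40 to 90 min at room temperature. After a 10 s baseline, compound was added and calcium influx was read kinetically for 3 min (ex 480/em 520 nm).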
# TRPML1 blocker – blocks the human TRPML1 channel; TRPML1-inducible cells, Ca2+ dye fluorescence, FDSS; stronger effect = lower value; inhibition of EC80 agonist-evoked calcium signal; activity change, negative = inhibition, % (concentration not given with the values); 390,000 compounds, 0.02% hits; AID 624415; in the data active means activity change below about -50%; inconclusive means about -30% to -50%; inactive means above about -30%;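 further: stimulus is agonist 54-4 at its EC80 concentration; on the % scale 0 is the no-effect control and ±100 the full control effect; the text of the record puts the active cut at -80%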
#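 Calcium fluorescence in TRPML1-DL cells induced overnight with Tet: a 110 s read after compound pin addition, then a 110 s antagonist read after challenge with 54-4 at 4 uM final (EC80).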
# * hit, by the source's call; u = inconclusive; x = no result given.
SMILES,TRPML1 agonist,CtBP-E1A inh,Six1-Eya2 inh,D2 potentiator,TRPV1 PAM,TRPML1 blocker
CN1C2CCC1CC(OC(=O)c1cc(Cl)cc(Cl)c1)C2 (stereo not drawn),0.3,-2.1,-4.3,-23.3,-4.7,-4.9
O=C(CCC(=O)N1CC2C[C@@H](C1)Cn1c2cccc1=O)NCCc1ccccc1,x,5.0,-0.9,0.1,7.4,x
O=C(c1ccc(F)c([N+](=O)[O-])c1)N1CC2CC(C1)c1cccc(=O)n1C2 (stereo not drawn),1.3,x,-0.5,-8.1,3.2,-3.2
CC1CCC(NC(=O)CNC(=S)N2CC3CC(C2)c2cccc(=O)n2C3)CC1 (stereo not drawn),0.1,3.4,1.2,1.2,-0.1,3.1
COC(=NC1CCCCC1)C(O)c1c[nH]c2ccccc12 (stereo not drawn),-0.4,-1.2,-1.4,-23.6,15.0,-4.6
c1cc2c(cc1CN1CCNCC1)OCO2,0.0,1.7,0.2,-17.5,14.4,-11.8
COC(=O)C1=C(c2ccc3ccccc3c2)C[C@@H]2CC[C@H]1N2C(=O)NC1CCCCC1,2.0,x,-5.8,-14.7,-0.9,15.2
Cc1ccc(OC(=O)N(C)C[C@@H]2OCc3cnnn3CCCC(=O)N([C@H](C)CO)C[C@@H]2C)cc1,-0.6,-10.4,10.4,-1.2,x,u
O=C1NC(=O)C(=Cc2cn(CCOc3ccc4c(c3)OCO4)c3ccccc23)C(=O)N1,1.1,9.2,-4.6,-2.6,3.4,7.6
CC(=O)c1c(C)n(CCCOC(C)C)c2ccc(O)cc12,-0.2,17.1,-3.2,-1.1,-4.1,-13.9
CCc1c(C)nc(N)nc1N1N=C1SCC#N,2.9,3.6,-1.8,-0.4,0.5,10.1
CC1CN(c2ccccn2)C(C)CN1C(=O)C(O)(c1ccccc1)c1ccccc1 (stereo not drawn),0.1,3.2,-4.9,-4.4,x,-1.3
O=C(NC(C(Cl)Cl)N1CCOCC1)c1ccccc1 (stereo not drawn),1.3,-0.7,1.2,-3.7,4.1,-18.8
O=[N+]([O-])c1ccc(N2CCCCC2)c2ncccc12,0.0,11.6,-17.4,-7.9,7.0,32.5
Fc1ccc(N2CCN(Cc3ccc4c(c3)OCO4)CC2)cc1,0.1,-14.7,-15.6,-19.0,13.7,1.0
CC(c1ccccc1F)n1cc(C(=O)Nc2ccc3nc[nH]c3c2)nn1 (stereo not drawn),-0.1,-0.4,-6.0,-14.3,-10.5,9.7
COc1cc2oc(=O)c(CC(=O)N3C[C@H]4C[C@@H](C3)c3cccc(=O)n3C4)c(C)c2cc1Cl,x,4.3,-1.0,-31.4,x,x
CC(Cc1ccccc1)N(C)CC1C(=O)C2CCC1C2 (stereo not drawn),0.4,1.4,24.6,-29.6,x,9.9
COC(=O)C1=C(c2cc3ccccc3s2)C[C@@H]2CC[C@H]1N2C(=O)NCCO,-0.1,-18.6,-7.0,-11.2,x,23.9
CN(C)c1ccc(/C=C/C=C/c2sc3ccccc3[n+]2C)cc1,0.2,6.3,5.8,-15.5,13.7,10.6
O=c1[nH]c(=S)n(CCC2=CCCCC2)c(O)c1/C=N/Nc1ccccc1,0.5,-29.7,-3.5,-16.6,7.7,-7.1
O=Cc1c(C(=O)O)n(Cc2ccc(F)cc2Cl)c2ccccc12,0.5,-14.4,-5.4,-5.5,6.8,8.9
O=C1C(Cc2cnc[nH]2)NC(=S)N1c1ccccc1 (stereo not drawn),-0.2,-16.2,-8.0,-5.6,-4.5,-18.6
COc1cc(C(=O)N2C[C@H]3C[C@@H](C2)c2cccc(=O)n2C3)cc(OC)c1OC,x,4.6,6.8,-23.3,-23.5,x
C[C@H]1[C@@H](c2ccccc2)O[C@@H](c2ccccc2Br)N1C,-0.7,14.0,1.6,-3.2,-3.0,-8.8

# Other compounds.
SMILES,TRPML1 agonist,CtBP-E1A inh,Six1-Eya2 inh,D2 potentiator,TRPV1 PAM,TRPML1 blocker
CCS(=O)(=O)NC(C)c1nnc2n1-c1ccc(Br)cc1C(c1ccccc1Cl)=NC2 (stereo not drawn),0.5,x,-4.5,0.2,x,-1.3
CCOC(=O)[C@]12Cc3c(cc(OC)c(OC)c3OC)[C@H]1N(C)C(=O)c1cc(OC)ccc12,-0.4,-0.8,0.2,x,x,x
O=C1/C(=C\c2ccc3c(c2)OCO3)N2CCC1CC2,0.6,-0.4,-0.3,-9.7,-6.3,-7.6
COc1ccc(C(=O)C2CCCN(CC3CCCCC3)C2)cc1OC (stereo not drawn),-0.2,0.8,-14.8,x,x,15.8
CN(CC(=O)Nc1ccccc1-c1ccccc1)C1CCCCC1,1.3,9.6,13.7,-22.8,-3.9,-4.4
CN1CCC(C)(O)C2CCCCC21 (stereo not drawn),-0.3,15.1,-12.9,-7.1,8.8,1.4
C=CCn1c(O)c(C(CC)=NC2CC2)c(=O)[nH]c1=O,-0.3,-1.2,8.7,11.0,-0.2,-15.1
COCCNC(=O)CN1C(=O)CN=C(c2ccccc2)c2ccccc21,0.7,5.4,-2.2,-2.9,-0.8,-9.7
CC1CN=C(Nc2cccc3ccccc23)S1 (stereo not drawn),-1.0,-9.7,0.3,-14.7,7.0,20.4
C=CCC1(CN2CCCC2=O)C(=O)NC(=O)NC1=O,-0.3,3.3,5.4,3.4,8.4,-6.6
CCOP(=O)(Nc1ccc2c(c1)C(=NNC(N)=S)c1ccccc1-2)OCC,-0.2,26.1,u,-9.1,x,9.8
C=CCn1c(O)c(C(C)=NCCO)c(=O)[nH]c1=O,0.5,9.3,4.8,-14.9,-6.3,-4.9
C[n+]1c(-c2ccccc2)cc(-c2ccc(Cl)cc2)cc1-c1ccccc1,1.6,0.9,9.7,-8.5,-9.2,-29.3
CN1CCN(c2ccc(Cl)cc2N)CC1,0.2,x,-4.3,-6.2,-3.5,-0.8
CN(C(=O)c1ccc(Cl)nc1)C1(c2ccccc2Cl)CCCCC1=O (stereo not drawn),0.7,6.4,4.7,-7.2,0.8,0.1
C=C1[C@H]2C[C@H]3[C@H]4N5C[C@]6(C)CCC[C@]47[C@H]([C@H]2O)[C@]3(C[C@]5(O)[C@H]67)[C@@H]1O,x,-21.3,4.0,-13.6,x,x
CC/C(=N\NC(=O)c1ccccc1O)c1c(O)n(C2CCCCC2)c(=O)[nH]c1=O,-0.4,-10.3,-1.8,-46.0,4.9,-10.0
Cc1ccc(N)cc1Cl,0.0,x,-0.3,6.3,x,-14.2
O=C1NC(=O)C(=Cc2ccc(Oc3ccc([N+](=O)[O-])cc3)cc2)C(=O)N1,0.1,1.5,-9.1,-6.5,5.8,32.0
CCC(C)n1c(O)c(/C=N/NC(=O)c2ccncc2)c(=O)[nH]c1=S (stereo not drawn),0.5,3.0,u,0.0,25.5,1.2
CC(NCc1ccc(Cl)cc1)C(O)c1ccccc1 (stereo not drawn),0.3,2.7,5.6,-27.8,1.9,5.6
CCC1CO/C(=C(\C(Cl)=C(Cl)Cl)[N+](=O)[O-])N1Cc1ccc(Cl)nc1 (stereo not drawn),x,1.2,3.0,-6.0,u,x
C(=N\NC1=NCCCCC1)/c1c[nH]c2ccccc12,0.4,-2.1,1.5,-5.8,-14.7,2.5
CC12C=CC(=O)C=C1CCC1C2C(=O)CC2(C)C(=O)CCC12 (stereo not drawn),-0.3,-3.0,3.6,-4.4,x,-10.7
CCOC(=O)[C@]12Cc3cc4ccccc4cc3[C@H]1N(Cc1ccccc1)C(=O)c1ccccc12,0.2,0.2,-15.4,x,x,x

# The listing continues.
SMILES,TRPML1 agonist,CtBP-E1A inh,Six1-Eya2 inh,D2 potentiator,TRPV1 PAM,TRPML1 blocker
COC(=O)C1=C(c2ccc(Cl)c(C(F)(F)F)c2)C[C@@H]2CC[C@H]1N2C(=O)N1CCCC1,0.3,5.4,-7.6,-11.0,-19.5,-4.1
O=C(CN1CCOCC1)c1ccc(Br)cc1,-0.3,-7.5,-3.2,-7.5,4.0,-1.2
C=CCc1cc(C=C2C(=O)NC(=O)NC2=O)cc(OC)c1OCc1ccc(C(=O)O)cc1,0.2,3.3,-6.9,-2.2,9.6,-15.9
COc1ccc(CCN(C)Cc2c(F)cccc2F)cc1OC,2.2,6.7,-3.4,-8.7,17.1,-10.8
Cc1ccc(S(=O)(=O)Cc2ccc(C(=O)N3CCC4(CC3)OCCO4)o2)cc1,-0.3,5.8,-6.5,16.0,-6.3,-3.8
COCC(=O)N1Cc2ccccc2-n2nncc2C1,1.3,8.6,3.3,-3.2,x,7.0
CC(=O)c1c(O)n(C)c(=S)n(-c2ccccc2)c1=O,-0.2,2.7,2.3,10.8,23.1,24.6
O=C1NC(=O)C2(Cc3ccccc3N3CCCC32)C(=O)N1Cc1ccccc1 (stereo not drawn),-1.0,5.9,-0.9,7.7,8.8,63.4
CCc1c(C)nc(N)nc1N1N=C1SCCOc1ccccc1,0.0,-13.2,0.4,4.2,26.2,-4.1
COc1ccc(N=Cc2c(O)n(-c3ccc(C)cc3)c(=O)[nH]c2=O)cc1,-0.2,5.8,0.0,10.0,6.4,-17.9
Cc1cc(S(N)(=O)=O)ccc1N=Cc1c(O)n(-c2ccccc2)c(=O)[nH]c1=O,-0.1,x,-0.7,-2.4,6.1,-3.7
CNS(=O)(=O)c1ccc(N=Cc2c(O)n(-c3cccc(C)c3)c(=O)[nH]c2=O)cc1,-0.3,6.2,9.9,-3.3,3.8,-3.9
CCCNC(=O)N1[C@H]2CC[C@@H]1C(C(=O)OC)=C(c1cc3ccccc3o1)C2,-0.4,2.3,-9.2,-13.1,x,8.7
CCOC(=O)C1(c2ccccc2)CCN(Cc2cccc(C(=O)O)c2)CC1,-0.2,-23.6,u,-10.4,0.2,8.1

# Rewritten bar-delimited: entries from further up
SMILES | TRPML1 agonist | CtBP-E1A inh | Six1-Eya2 inh | D2 potentiator | TRPV1 PAM | TRPML1 blocker
COC(=O)C1=C(c2ccc(Cl)c(C(F)(F)F)c2)C[C@@H]2CC[C@H]1N2C(=O)N1CCCC1 | 0.3 | 5.4 | -7.6 | -11.0 | -19.5 | -4.1
O=C(CN1CCOCC1)c1ccc(Br)cc1 | -0.3 | -7.5 | -3.2 | -7.5 | 4.0 | -1.2
C=CCc1cc(C=C2C(=O)NC(=O)NC2=O)cc(OC)c1OCc1ccc(C(=O)O)cc1 | 0.2 | 3.3 | -6.9 | -2.2 | 9.6 | -15.9
COc1ccc(CCN(C)Cc2c(F)cccc2F)cc1OC | 2.2 | 6.7 | -3.4 | -8.7 | 17.1 | -10.8
Cc1ccc(S(=O)(=O)Cc2ccc(C(=O)N3CCC4(CC3)OCCO4)o2)cc1 | -0.3 | 5.8 | -6.5 | 16.0 | -6.3 | -3.8
COCC(=O)N1Cc2ccccc2-n2nncc2C1 | 1.3 | 8.6 | 3.3 | -3.2 | x | 7.0
CC(=O)c1c(O)n(C)c(=S)n(-c2ccccc2)c1=O | -0.2 | 2.7 | 2.3 | 10.8 | 23.1 | 24.6
O=C1NC(=O)C2(Cc3ccccc3N3CCCC32)C(=O)N1Cc1ccccc1 (stereo not drawn) | -1.0 | 5.9 | -0.9 | 7.7 | 8.8 | 63.4
CCc1c(C)nc(N)nc1N1N=C1SCCOc1ccccc1 | 0.0 | -13.2 | 0.4 | 4.2 | 26.2 | -4.1
COc1ccc(N=Cc2c(O)n(-c3ccc(C)cc3)c(=O)[nH]c2=O)cc1 | -0.2 | 5.8 | 0.0 | 10.0 | 6.4 | -17.9

# Screening results from PubChem BioAssay.

# An excerpt, so the mix of outcomes need not match the whole.
